# Screens deposited in PubChem by several laboratories.
# HNF4A DNA FP: change in binding of human HNF4 alpha to DNA | 360,000 tested, 0.3% active | HNF4a-FITC DNA binding, fluorescence polarization, 1 h | AID 1224865 | activity change, % at 10 µM; in the data active = activity change above about 30%, passing the limit was not always enough;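 note: controls were the assay level and a saturating level of protein; the project sought stronger binding though the title names inhibitors; some compounds called inactive have numbers as strong as hits; positive values seem to mean higher polarization but the record does not say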
# Target sequence (P41235 whole entry, looked up): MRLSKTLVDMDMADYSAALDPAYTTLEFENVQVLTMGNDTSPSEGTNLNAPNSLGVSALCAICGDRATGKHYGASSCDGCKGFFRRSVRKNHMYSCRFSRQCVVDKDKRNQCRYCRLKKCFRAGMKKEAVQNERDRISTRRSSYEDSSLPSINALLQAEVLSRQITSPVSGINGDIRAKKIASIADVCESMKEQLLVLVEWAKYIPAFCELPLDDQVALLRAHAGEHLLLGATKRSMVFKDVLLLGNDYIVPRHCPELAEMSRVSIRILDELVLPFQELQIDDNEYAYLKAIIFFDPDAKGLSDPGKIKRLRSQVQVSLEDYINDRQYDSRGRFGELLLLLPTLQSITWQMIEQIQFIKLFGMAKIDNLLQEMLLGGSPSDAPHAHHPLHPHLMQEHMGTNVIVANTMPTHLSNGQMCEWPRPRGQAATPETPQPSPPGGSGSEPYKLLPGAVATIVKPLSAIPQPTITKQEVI
# Vif TR-FRET: HIV-1 Vif–A3G interaction blockers – biochemical, TR-FRET, GST-Vif 1-94, biotin-A3G peptide, dose response retest, primary screen (AID 1117319) | TR-FRET GST-Vif / biotin-A3G peptide binding; higher % means a stronger effect; test concentration not given here; strong numbers were not always called active | inhibition, %; hits with a dose series show IC50 in µM | 260,000 tested, 0.57% active;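 active = above the screen mean plus three standard deviations and confirmed in dose response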;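 note: Vif residues 1-94 fused to GST binding biotinylated APOBEC3G peptide 110-148; 0% = full assay without inhibitor and 100% = GST in place of GST-Vif; retest series ran down from 100 µM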
# * = called active by the depositor. An excerpt, so the mix of outcomes need not match the whole.
HNF4A DNA FP	Vif TR-FRET	SMILES
0.4	-0.1%	O=C(Cn1nnc(-c2ccc(F)cc2)n1)NC(=O)NC1CCCCC1
-1.1	8.4%	O=C(Cc1ccc(Cl)cc1)N/N=C/c1ccc(O)c(O)c1
4.7	-1.8%	Cc1noc(C)c1CCC(=O)Nc1cc(Cl)ccc1C(=O)O
-2.4	1.8%	C[C@@H]1CN([C@@H](C)CO)S(=O)(=O)c2ccc(Br)cc2O[C@H]1CN(C)C(=O)c1cccc(F)c1
-0.6	-4.4%	Cc1ccc(C(=O)NCc2ccc3c(c2)OCO3)c(Cl)c1
1.6	-0.6%	CC(C)(CN1CCCN(CC(C)(C)C(=O)O)C1=O)C(=O)O
0.8	-1.4%	COCC(=O)N(C)C[C@H]1Oc2cc(Br)ccc2S(=O)(=O)N([C@H](C)CO)C[C@H]1C
2.6	3.3%	CC1Cc2ccccc2N1C(=O)Cn1cc(C(F)(F)F)ccc1=O (stereo not given)

# New compounds follow.
HNF4A DNA FP	Vif TR-FRET	SMILES
0.3	2.2%	CCN(CC)C(=O)C1=C(C)N(CCC2=CCCCC2)C(=O)C(CC(=O)NC(c2ccccc2)c2ccccc2)C1 (stereo not given)
-1.2	-1.3%	Cc1cnc(C=O)c2cccc([N+](=O)[O-])c12
-1.4	3.1%	Cc1ccnc(SC2CC(=O)N(c3ccccc3)C2=O)n1 (stereo not given)
1.2	-8.6%	COc1ccccc1N1CCN(C(=S)NC(=O)c2ccc([N+](=O)[O-])cc2)CC1
2.6	-0.6%	CC(=O)OC1C=CN(C(C)=O)C(SC(C)(C)C)C1(C)O (stereo not given)
4.0	-4.5%	C#Cc1cccc(C(=O)N(Cc2cccnc2)CC2CCCN(C3CCCCC3)C2)c1 (stereo not given)
2.9	-10.4%	COc1cccc2c(=O)c3c(oc12)CCCC3
-0.5	-4.1%	COc1ccccc1CNc1cccc(C)n1

# Carrying on:
HNF4A DNA FP	Vif TR-FRET	SMILES
-0.3	-7.7%	Cc1cc(/C=C(\C#N)C(=O)NCc2ccccc2)c(C)[nH]1
-2.5	4.8%	COc1ccc2nc3n(c(=O)c2c1)-c1ncccc1C(=O)NC3CC(C)C (stereo not given)
3.7	0.0%	CC1CN(C(=O)COC(=O)c2cc(=O)[nH]c3ccccc23)CC(C)O1 (stereo not given)
-2.3	-0.5%	CCN(CC)C(=O)C1=C(C)N(Cc2ccc(C(C)(C)C)cc2)C(=O)C(CC(=O)NCCN2CCOCC2)C1 (stereo not given)
1.6	-7.7%	COc1ccc(Cl)cc1C(=O)NC1CC(C)(C)NC(C)(C)C1
5.6	-6.8%	CC1=NCC(C)c2ccccc21 (stereo not given)
2.9	2.3%	CN(C(=O)CCN1C(=O)/C(=C/c2ccc(F)cc2)SC1=S)C1CCS(=O)(=O)C1 (stereo not given)
-2.2	-0.5%	C=CCn1c(C)nnc1SCC(=O)N1c2ccccc2NC(=O)C1(C)C

# Four entries from above, ordered by the value under HNF4A DNA FP, descending.
Compound	HNF4A DNA FP	Vif TR-FRET
CC1=NCC(C)c2ccccc21 (stereo not given)	5.6	-6.8%
CC1CN(C(=O)COC(=O)c2cc(=O)[nH]c3ccccc23)CC(C)O1 (stereo not given)	3.7	0.0%
CN(C(=O)CCN1C(=O)/C(=C/c2ccc(F)cc2)SC1=S)C1CCS(=O)(=O)C1 (stereo not given)	2.9	2.3%
CCN(CC)C(=O)C1=C(C)N(Cc2ccc(C(C)(C)C)cc2)C(=O)C(CC(=O)NCCN2CCOCC2)C1 (stereo not given)	-2.3	-0.5%

# (more compounds)
HNF4A DNA FP	Vif TR-FRET	SMILES
1.9	-2.2%	O=C(c1ccco1)N1CC2(CC(c3ccc(Cl)cc3)=NO2)CN1Cc1ccc(Br)cc1 (stereo not given)
1.8	7.2%	COC1CC(=O)C2OC(c3ccccc3)OCC2O1 (stereo not given)
0.0	4.1%	COc1cc2c(cc1CNC[C@H]1O[C@@H](n3cc(C)c(=O)[nH]c3=O)C[C@@H]1O)OCO2
4.7	-0.2%	C[C@@H]1CN([C@H](C)CO)C(=O)CCCn2nncc2CO[C@H]1CN(C)S(=O)(=O)c1ccc(-n2cccn2)cc1
19.1	0.1%	COc1ccccc1CCC(=O)Nc1ccc(S(=O)(=O)Nc2ncccn2)cc1
3.1	9.8%	C[C@@H]1CN([C@@H](C)CO)C(=O)CCCn2nncc2CO[C@H]1CN(C)Cc1ccncc1
-1.4	-3.1%	C[C@H](CO)N1C[C@H](C)[C@@H](CN(C)S(=O)(=O)c2ccccc2)OCc2cnnn2CCCC1=O
0.8	0.2%	CC(=O)Nc1ccc(S(=O)(=O)NC(C)C(=O)OCC(=O)Nc2ccc(F)cc2Cl)cc1 (stereo not given)

# New compounds follow
HNF4A DNA FP	Vif TR-FRET	SMILES
0.1	4.3%	COC(=O)C[C@H]1C[C@H]2c3cc(NS(=O)(=O)c4ccc(OC)cc4)ccc3O[C@H]2[C@H](CO)O1
5.4	2.5%	C[C@@H]1CN([C@H](C)CO)C(=O)CCCn2nncc2CO[C@@H]1CN(C)S(=O)(=O)c1cccc(C#N)c1
1.7	2.1%	CCN1CCN(c2sc(S(=O)(=O)CC)nc2S(=O)(=O)c2ccc(C)cc2)CC1
0.2	-4.4%	COc1cc2c(cc1OC)C(CNC(=O)C=Cc1cc(OC)c(OC)c(OC)c1)C2 (stereo not given)
1.1	3.0%	C[C@H]1Cn2cnc(C(=O)NCc3ccc(CNC(=O)OC(C)(C)C)cc3)c2C(=O)N1
0.5	0.5%	C[C@@H]1CN(Cc2nnnn2CC(=O)NCCCn2cccn2)C[C@H](C)O1
6.0	4.0%	CC(Sc1nnc(C(C)Oc2ccc(F)cc2)o1)C(=O)NCc1ccc2c(c1)OCO2 (stereo not given)
1.1	-9.4%	COc1cccc(Nc2ncnc3ccc(Br)cc23)c1

# The results go on.
HNF4A DNA FP	Vif TR-FRET	SMILES
4.1	-2.4%	O=C(CSc1nnc(COc2ccc(Cl)cc2)o1)Nc1nccs1
2.8	-2.7%	Nc1ccn(C2OC(CCl)C(O)C2O)c(=O)n1 (stereo not given)
2.3	6.8%	O=C(O)Cn1ccnc1[N+](=O)[O-]
2.6	0.1%	COc1ccc(CCNC(=O)CNC(=O)N2CC(=O)Nc3ccccc32)cc1
1.5	-3.6%	O=C(CCNS(=O)(=O)c1ccc(Cl)cc1)NCCc1ccccc1
-3.1	-3.6%	Cc1ccc(O)c(Cc2cc(C)cc(Cc3cc(C)ccc3O)c2O)c1
1.7	-6.8%	COC(=O)C[C@H]1C[C@H]2c3cc(NC(=O)CC4CC4)ccc3O[C@H]2[C@H](CO)O1
3.9	3.8%	COCOCCn1cc(CN2CCS(=O)(=O)N(Cc3ccc(-c4ccc(Cl)cc4)cc3)C(CC(C)C)C2=O)nn1 (stereo not given)

# Some values from the list.
# Vif TR-FRET result of `Nc1ccn(C2OC(CCl)C(O)C2O)c(=O)n1` (stereo not given) is entered as -2.7%
# Vif TR-FRET result of `Cc1ccc(O)c(Cc2cc(C)cc(Cc3cc(C)ccc3O)c2O)c1` is entered as -3.6%
# Vif TR-FRET result of `O=C(O)Cn1ccnc1[N+](=O)[O-]` is entered as 6.8%
# HNF4A DNA FP result of `COC(=O)C[C@H]1C[C@H]2c3cc(NC(=O)CC4CC4)ccc3O[C@H]2[C@H](CO)O1` is entered as 1.7
# HNF4A DNA FP result of `O=C(CCNS(=O)(=O)c1ccc(Cl)cc1)NCCc1ccccc1` is entered as 1.5

# Next results follow:
HNF4A DNA FP	Vif TR-FRET	SMILES
3.5	-8.0%	C[C@H]1CN([C@@H](C)CO)C(=O)c2cc(Br)cnc2O[C@@H]1CN(C)C(=O)C1CCC1
-2.4	0.7%	Cc1ccc(S(=O)(=O)Nc2ccc3c(c2)C(=O)N([C@@H](C)CO)C[C@@H](C)[C@@H](CN(C)CC2CC2)OCCCC[C@@H](C)O3)cc1
-2.5	-6.0%	CC1CCC2(CC1)NC(=O)N(CC(=O)NCc1ccco1)C2=O (stereo not given)
-2.2	2.9%	C[C@@H]1CN([C@H](C)CO)S(=O)(=O)c2ccc(C#C[C@@H](C)O)cc2O[C@@H]1CN(C)Cc1ccc(-c2ccccc2)cc1
-2.5	-3.9%	CC(=O)c1c(O)cc2c3c1OC(C)(C)C1CCC(C)(CC31)O2 (stereo not given)
-1.1	8.3%	C[C@H]1CN([C@@H](C)CO)C(=O)CCCn2cc(nn2)CO[C@@H]1CN(C)S(C)(=O)=O
3.1	3.3%	COc1ccc(NC(=O)N(C)C[C@H]2OCCCC[C@@H](C)Oc3ccc(N(C)C)cc3C(=O)N([C@H](C)CO)C[C@@H]2C)cc1
-2.9	-5.5%	COc1ccc(CN2C(=O)C(CC(=O)NCCc3ccccn3)CC(C(=O)N(C)C)=C2C)cc1 (stereo not given)

# Next section.
HNF4A DNA FP	Vif TR-FRET	SMILES
-0.2	2.5%	COc1ccc(NC(=O)CN2C(=O)C3CC=CCC3C2=O)cc1Cl (stereo not given)
-1.0	-3.2%	Cc1ccc(S(=O)(=O)NCc2ccccc2)cc1C(=O)NCC(=O)Nc1c(C)cccc1C
3.4	-0.2%	CCCCN1C(=O)C(CC(=O)NCc2cccs2)CC(C(=O)N(C)C)=C1C (stereo not given)
0.4	-9.0%	CCOC(=O)c1c(NC(=O)COC(=O)c2ccc(Cl)nc2)sc(C)c1C
2.0	4.9%	CCCCN1C[C@H](c2ccccc2)[C@@H](CC(=O)NC)C1=O
4.5	5.3%	CC(C)CN(C(=O)COC(=O)C12CC3CC(CC(O)(C3)C1)C2)c1c(N)n(Cc2ccccc2)c(=O)[nH]c1=O
2.2	0.8%	O=S1(=O)CCN(C2CCCCCC2)CC1
0.8	-9.6%	O=C(Nc1ccc2nc(N3CCOCC3)sc2c1)c1cc2ccccc2o1

# Retrieved one by one from above, seven records:
HNF4A DNA FP	Vif TR-FRET	SMILES
2.2	0.8%	O=S1(=O)CCN(C2CCCCCC2)CC1
2.0	4.9%	CCCCN1C[C@H](c2ccccc2)[C@@H](CC(=O)NC)C1=O
0.4	-9.0%	CCOC(=O)c1c(NC(=O)COC(=O)c2ccc(Cl)nc2)sc(C)c1C
-0.2	2.5%	COc1ccc(NC(=O)CN2C(=O)C3CC=CCC3C2=O)cc1Cl (stereo not given)
-1.0	-3.2%	Cc1ccc(S(=O)(=O)NCc2ccccc2)cc1C(=O)NCC(=O)Nc1c(C)cccc1C
3.4	-0.2%	CCCCN1C(=O)C(CC(=O)NCc2cccs2)CC(C(=O)N(C)C)=C1C (stereo not given)
0.8	-9.6%	O=C(Nc1ccc2nc(N3CCOCC3)sc2c1)c1cc2ccccc2o1

# (cont.)
HNF4A DNA FP	Vif TR-FRET	SMILES
4.3	-0.4%	O=C(NCCc1ccccc1)c1ccccc1C(F)(F)F
-3.5	-6.3%	CN(C)c1ccc(C=O)c(Oc2ccccc2)c1
0.0	2.7%	O=C(C[C@H]1C(=O)N(Cc2cccnc2)C[C@@H]1Cc1ccccc1)Nc1ccc(Br)cc1
-4.8	-1.9%	CSc1nsc(SC)c1-c1ccc(Cl)cc1
-3.6	3.4%	CCc1ccc([C@@H]2C[C@H]3[C@@H](CN2S(=O)(=O)c2ccc(C)cc2)C(=O)C[C@@H](c2ccccc2)N3S(=O)(=O)c2ccc(C)cc2)cc1
-2.4	2.0%	O=C1CCC(=O)N1CCC(=O)N(C(=O)NC1CCCCC1)C1CCCCC1
3.4	-2.5%	CC1(C)CC(=O)C=C(c2ccc(-c3cccc4c3sc3ccccc34)cc2)C1=O
2.3	3.1%	Cc1ncoc1C(=O)NC1CCCc2c1cnn2-c1cc(F)cc(F)c1 (stereo not given)

# The list goes on.
HNF4A DNA FP	Vif TR-FRET	SMILES
3.0	-7.2%	C[C@H]1CN([C@@H](C)CO)C(=O)CCCn2nncc2CO[C@@H]1CN(C)Cc1ccc(Oc2ccccc2)cc1
-7.7	2.2%	O=C1COc2ccc(C(=O)COC(=O)CCCOc3ccccc3)cc2N1
1.7	-4.0%	CCOC(=O)C1=C(COC(=O)C2CC(=O)N(c3ccccc3CC)C2)NC(=O)NC1C (stereo not given)
-1.0	-0.6%	O=C1CNC(=O)c2cc(Cl)ccc2N1
-0.1	6.5%	COc1ccc(NC(=O)CN(C)C(=O)c2ccc3c(c2)CC(c2ccccc2)OC3=O)cc1 (stereo not given)
-2.3	1.8%	C[C@@H]1CN([C@@H](C)CO)C(=O)CCCn2nncc2CO[C@H]1CN(C)C(=O)Nc1ccc(C(F)(F)F)cc1
3.9	-2.6%	c1ccc(NN(Cc2cnccn2)c2ccccc2)cc1
-0.2	-0.9%	O=C(Nc1ccc2c3c(cccc13)CC2)c1ccccc1

# Other entries:
HNF4A DNA FP	Vif TR-FRET	SMILES
0.1	5.0%	Cc1cccc(-c2nc(CCNC(=O)c3ccco3)cs2)c1
3.3	1.1%	COc1ccc(CC(O)CO)cc1OCc1ccccc1 (stereo not given)
2.0	-3.7%	C[C@@H]1CN([C@@H](C)CO)C(=O)CCCn2cc(nn2)CO[C@H]1CN(C)C(=O)c1cc(-c2ccccc2)on1
1.6	7.0%	CCN1C(=O)[C@H]2[C@@H](c3ccc(C(F)(F)F)cc3)N[C@]3(CCCN(Cc4ccc(C(F)(F)F)cc4)C3=O)[C@H]2C1=O
2.8	2.4%	C[C@@H]1CN([C@@H](C)CO)C(=O)c2cc(NC(=O)c3ccccc3)ccc2O[C@@H](C)CCCCO[C@@H]1CN(C)S(=O)(=O)c1ccc(F)cc1
0.4	1.6%	CN[C@H](C)C(=O)NC[C@H]1O[C@@H](n2ccc(N)nc2=O)[C@H](O)[C@@H]1O
-1.0	-5.2%	CNC(=O)C[C@H]1C(=O)N(c2ccc(Br)cc2)C[C@@H]1CSC
